Source: PubChem BioAssay (Broad Institute)
Yeast UUG start = alters start codon recognition fidelity in yeast; S. cerevisiae UUG-firefly luciferase reporter, luminescence/redox ratio; activity score, % at 18.7 µM; 350,000 tested, 0.13% active;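 active means replicate mean at a twofold rise or more, about +100% in these data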;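 further: firefly luciferase made from a UUG start codon reports start codon fidelity; reporter light over untreated wells divided by growth signal over untreated wells; some hits fall short of that in this replicate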
Env fusion inh = inhibitors of HIV Env-mediated cell fusion; HeLa-JRFL Env/CEM21 cell fusion, luciferase; inhibition, % at 12.3 µM; 360,000 tested, 1.1% active;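 active means mean replicate inhibition score of at least 50 and every replicate individually at or above 50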;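 further: 0% = plate neutral controls and 100% = maraviroc near 300 nM; one replicate is shown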
Numbers without * were called inactive; [ ] = remark or other dose. An excerpt (hit frequency here may not be typical).

Preview, five compounds:
Below each SMILES – Env fusion inh, Yeast UUG start
- C[C@@H]1CCCCO[C@@H](CN(C)C(=O)Nc2cccc3ccccc23)[C@H](C)CN([C@@H](C)CO)C(=O)c2cc(NC(=O)Nc3ccc(F)cc3)ccc2O1
 : 8[16.7 µM], 3
- COc1ccc(S(=O)(=O)N(C)C[C@@H]2OCCCC[C@@H](C)Oc3ccc(NS(C)(=O)=O)cc3C(=O)N([C@@H](C)CO)C[C@@H]2C)cc1
 : -9[16.7 µM], 13
- O=C(CCN1CCCCC1)NCC[C@H]1CC[C@H](NC(=O)C2CCCC2)[C@H](CO)O1
 : 3[16.7 µM], 167*
- C[C@@H]1CN([C@H](C)CO)C(=O)Cc2cc(NC(=O)Nc3ccccc3)ccc2O[C@@H]1CN(C)S(=O)(=O)c1cccs1
 : 13[16.7 µM], 19
- O=C(N[C@@H]1CC[C@@H](CCNS(=O)(=O)Cc2ccccc2)O[C@@H]1CO)c1ccc2c(c1)OCO2
 : -2[16.7 µM], 12

The whole of this part (from the top)
Below each SMILES – Env fusion inh, Yeast UUG start
- C[C@@H]1CCCCO[C@@H](CN(C)C(=O)Nc2cccc3ccccc23)[C@H](C)CN([C@@H](C)CO)C(=O)c2cc(NC(=O)Nc3ccc(F)cc3)ccc2O1
 : 8[16.7 µM], 3
- COc1ccc(S(=O)(=O)N(C)C[C@@H]2OCCCC[C@@H](C)Oc3ccc(NS(C)(=O)=O)cc3C(=O)N([C@@H](C)CO)C[C@@H]2C)cc1
 : -9[16.7 µM], 13
- O=C(CCN1CCCCC1)NCC[C@H]1CC[C@H](NC(=O)C2CCCC2)[C@H](CO)O1
 : 3[16.7 µM], 167*
- C[C@@H]1CN([C@H](C)CO)C(=O)Cc2cc(NC(=O)Nc3ccccc3)ccc2O[C@@H]1CN(C)S(=O)(=O)c1cccs1
 : 13[16.7 µM], 19
- O=C(N[C@@H]1CC[C@@H](CCNS(=O)(=O)Cc2ccccc2)O[C@@H]1CO)c1ccc2c(c1)OCO2
 : -2[16.7 µM], 12
- C[C@@H]1CN([C@H](C)CO)C(=O)c2cc(NC(=O)Nc3ccc(F)cc3)ccc2O[C@@H](C)CCCCO[C@H]1CN(C)Cc1ccc(C(F)(F)F)cc1
 : 68*[16.7 µM], 1
- C[C@H](NC(=O)C[C@@H]1C=C[C@H](NC(=O)CN2CCOCC2)[C@H](CO)O1)c1ccccc1
 : -2[16.7 µM], 28
- C[C@H]1CN([C@@H](C)CO)C(=O)c2cccc(NS(=O)(=O)c3cccs3)c2O[C@H]1CN(C)Cc1ccc(C(F)(F)F)cc1
 : -5[16.7 µM], -4
- CCCN(C)C[C@@H]1Oc2cc(-c3ccc(C)cc3)ccc2S(=O)(=O)N([C@@H](C)CO)C[C@H]1C
 : 23[16.7 µM], 9
- O=C(N[C@@H]1CC[C@H](CCNS(=O)(=O)c2ccc(F)cc2)O[C@H]1CO)c1cnccn1
 : -7[16.7 µM], -2
- Cc1noc(C)c1NC(=O)Nc1ccc2c(c1)C(=O)N([C@H](C)CO)C[C@@H](C)[C@@H](CN(C)Cc1ccccc1)O2
 : -2[16.7 µM], -19
- COc1ccc(NC(=O)N2C[C@H](O)COC[C@@H]3O[C@H](CC(=O)N4CCCCC4)CC[C@H]32)cc1
 : 13[16.7 µM], -2
- C[C@@H]1CN([C@@H](C)CO)C(=O)c2cc(N(C)C)ccc2O[C@H]1CN(C)Cc1ccc(C(=O)O)cc1
 : -18[16.7 µM], 5
- C[C@H](CO)N1C[C@H](C)[C@H](CN(C)C(=O)Nc2ccccc2)Oc2c(NC(=O)Nc3ccccc3)cccc2C1=O
 : -51[16.7 µM], -15
- CNC(=O)C[C@H]1CC[C@@H]2[C@H](COc3ccc(NC(=O)c4ccc5c(c4)OCO5)cc3C(=O)N2C)O1
 : 7[16.7 µM], 0
- C[C@H](CO)N1C[C@H](C)[C@H](CN(C)C(=O)c2cnccn2)Oc2cc(C#CC3CC3)ccc2S1(=O)=O
 : -14[16.7 µM], 6
- C[C@@H]1CN([C@@H](C)CO)S(=O)(=O)c2ccc(C3=CCCC3)cc2O[C@H]1CN(C)C(=O)CN(C)C
 : -35[16.7 µM], -3
- Cc1noc(C)c1S(=O)(=O)Nc1ccc2c(c1)C(=O)N([C@H](C)CO)C[C@H](C)[C@H](CN(C)Cc1ccc(C(=O)O)cc1)OCCCC[C@@H](C)O2
 : -76[16.7 µM], -6
- C[C@@H]1CN([C@H](C)CO)C(=O)Cc2cc(NC(=O)CCCCCC(=O)Nc3ccccc3N)ccc2O[C@H]1CN(C)C(=O)Nc1ccc(C(F)(F)F)cc1
 : 13[16.7 µM], -16
- C[C@H]1CN([C@@H](C)CO)S(=O)(=O)c2ccc(C#CC3CC3)cc2O[C@@H]1CN(C)Cc1cccc(F)c1
 : -8[16.7 µM], -8
- C[C@H](CO)N1C[C@H](C)[C@H](CN(C)Cc2ccccc2)Oc2ccc(NC(=O)Cc3cn(C)c4ccccc34)cc2CC1=O
 : 14[16.7 µM], -7
- CCCN(C)C[C@@H]1Oc2ncc(C#CCC(C)C)cc2C(=O)N([C@@H](C)CO)C[C@H]1C
 : -14[16.7 µM], 15
- C[C@H]1CN([C@@H](C)CO)S(=O)(=O)c2ccc(-c3ccc(C(=O)N(C)C)cc3)cc2O[C@H]1CN(C)C(=O)C1CCCCC1
 : 11[16.7 µM], 5
- C[C@@H]1CN([C@H](C)CO)C(=O)c2cc(NC(=O)Nc3ccc(F)cc3)ccc2O[C@@H](C)CCCCO[C@H]1CN(C)C(=O)C1CCCCC1
 : 40[16.7 µM], -4
- Cc1noc(C)c1NC(=O)N[C@H]1C=C[C@@H](CC(=O)N2CCCCC2)O[C@@H]1CO
 : 5[16.7 µM], -9
- C[C@H](CO)N1C[C@H](C)[C@H](CN(C)S(=O)(=O)c2cccs2)Oc2c(NC(=O)C3CC3)cccc2C1=O
 : 27[16.7 µM], 7
- C[C@@H]1CN([C@@H](C)CO)C(=O)c2cc(NC(=O)CCC(F)(F)F)ccc2O[C@@H](C)CCCCO[C@@H]1CN(C)S(=O)(=O)c1ccc(Cl)cc1
 : 0[16.7 µM], -1
- C[C@@H]1CCCCO[C@H](CN(C)C(=O)CCCN(C)C)[C@@H](C)CN([C@H](C)CO)C(=O)c2cc(NC(=O)NC3CCCCC3)ccc2O1
 : 5[16.7 µM], 14
- C[C@@H]1CN([C@H](C)CO)C(=O)c2cc(NC(=O)Nc3ccc4c(c3)OCO4)ccc2O[C@@H](C)CCCCO[C@@H]1CN(C)C(=O)c1ccccc1
 : 11[16.7 µM], 20
- C[C@H](CO)N1C[C@H](C)[C@H](CN(C)S(C)(=O)=O)OCCCC[C@H](C)Oc2ccc(NC(=O)Nc3cccc4ccccc34)cc2C1=O
 : 9[16.7 µM], 9
- CCCNC(=O)N(C)C[C@H]1Oc2ncc(-c3ccc(F)cc3)cc2C(=O)N([C@@H](C)CO)C[C@@H]1C
 : -22[16.7 µM], -7
- COC(=O)C[C@@H]1C=C[C@H](NS(=O)(=O)c2ccc(OC)cc2)[C@@H](CO)O1
 : -2[16.7 µM], -15
- C[C@H]1CN([C@@H](C)CO)C(=O)c2cc(C#CC3(O)CCCC3)cnc2O[C@@H]1CN(C)Cc1ccncc1
 : -1[16.7 µM], -8
- CC(C)NC(=O)N[C@@H]1CC[C@@H](CCn2cc(-c3ccc(F)cc3)nn2)O[C@H]1CO
 : -2[16.7 µM], 11
- CC(C)C#Cc1ccc2c(c1)O[C@@H](CN(C)C(=O)CC1CC1)[C@H](C)CN([C@H](C)CO)S2(=O)=O
 : 5[16.7 µM], 70*
- CC(C)NC(=O)Nc1ccc2c(c1)C(=O)N([C@H](C)CO)C[C@H](C)[C@H](CN(C)C(=O)Nc1ccc3c(c1)OCO3)O2
 : 15[16.7 µM], -3
- CCC(=O)N(C)C[C@H]1Oc2ncc(C#Cc3ccc(OC)cc3)cc2C(=O)N([C@H](C)CO)C[C@@H]1C
 : -27[16.7 µM], -3
- O=C(Nc1ccc(F)cc1)Nc1ccc2c(c1)[C@@H]1C[C@H](CC(=O)N3CCOCC3)O[C@H](CO)[C@@H]1O2
 : 3[16.7 µM], -26
- C[C@@H]1CN([C@H](C)CO)C(=O)c2cc(-c3ccc(F)cc3)cnc2O[C@H]1CN(C)C(=O)c1ccccc1F
 : -3[16.7 µM], 7
- C[C@H]1CN([C@@H](C)CO)C(=O)Cc2cc(NC(=O)Nc3ccccc3)ccc2O[C@H]1CN(C)C(=O)Nc1ccc(C(F)(F)F)cc1
 : 21[16.7 µM], -1
- C[C@@H]1CCCCO[C@@H](CN(C)S(=O)(=O)c2ccc(Cl)cc2)[C@@H](C)CN([C@H](C)CO)C(=O)c2cc(NC(=O)Nc3cccc4ccccc34)ccc2O1
 : -3[16.7 µM], 6
- C[C@H](CO)N1C[C@H](C)[C@H](CN(C)Cc2ccc(C(=O)O)cc2)Oc2ccc(NS(=O)(=O)c3cccs3)cc2C1=O
 : 4[16.7 µM], -7
- N#C[C@@H]1[C@@H](c2ccc(-c3cccc(F)c3)cc2)[C@@H](CO)N1S(=O)(=O)c1cccc(F)c1
 : 3[16.7 µM], -7
- C[C@@H]1CN([C@H](C)CO)C(=O)c2cccc(NC(=O)Nc3ccc4c(c3)OCO4)c2O[C@H]1CN(C)CC1CC1
 : -16[16.7 µM], -18
- COc1ccc(CN(C)C[C@H]2Oc3c(NC(=O)Nc4ccc5c(c4)OCO5)cccc3C(=O)N([C@@H](C)CO)C[C@@H]2C)cc1
 : -13[16.7 µM], 10
- CNC(=O)C[C@@H]1CC[C@H]2[C@H](COc3ccc(NC(=O)C4CC4)cc3C(=O)N2C)O1
 : 12[16.7 µM], 4
- C[C@H]1CN([C@@H](C)CO)C(=O)c2cccc(NS(=O)(=O)c3cccs3)c2O[C@H]1CN(C)S(=O)(=O)c1cccs1
 : -13[16.7 µM], -3
- O=C(CCN1CCCCC1)N[C@@H]1C=C[C@H](CC(=O)N2CCC(Cc3ccccc3)CC2)O[C@H]1CO
 : -12[16.7 µM], -3
- C[C@@H]1CN([C@@H](C)CO)C(=O)c2cc(-c3ccccc3F)cnc2O[C@H]1CN(C)Cc1ccc(F)cc1
 : 24[16.7 µM], 2
- CN1C(=O)c2cc(NC(=O)c3cscn3)ccc2OC[C@H]2O[C@H](CC(=O)N3CCOCC3)CC[C@H]21
 : 8[16.7 µM], -6
- COc1ccc(NC(=O)Nc2ccc3c(c2)C(=O)N([C@@H](C)CO)C[C@H](C)[C@@H](CN(C)S(=O)(=O)c2ccc(OC)cc2)O3)cc1
 : 12[16.7 µM], -13
- COc1ccc(NC(=O)Nc2ccc3c(c2)C(=O)N([C@@H](C)CO)C[C@H](C)[C@H](CN(C)S(=O)(=O)c2ccc(C)cc2)OCCCC[C@@H](C)O3)cc1
 : 17[16.7 µM], -10
- C[C@@H]1CCCCO[C@H](CN(C)C(=O)NC2CCCCC2)[C@H](C)CN([C@@H](C)CO)C(=O)c2cc(NC(=O)NC3CCCCC3)ccc2O1
 : -12[16.7 µM], -1
- COc1cccc(-c2cnc3c(c2)C(=O)N([C@H](C)CO)C[C@@H](C)[C@@H](CN(C)Cc2ccccc2)O3)c1
 : -5[16.7 µM], 8
- O=C(Cc1ccccn1)N[C@@H]1CC[C@H](CC(=O)N2CCCCC2)O[C@@H]1CO
 : 4[16.7 µM], -8
- COc1ccc(S(=O)(=O)Nc2ccc3c(c2)C(=O)N([C@@H](C)CO)C[C@@H](C)[C@@H](CN(C)C(=O)Nc2ccccc2)O3)cc1
 : 10[16.7 µM], 31
- O=C(NCC[C@@H]1CC[C@H](NS(=O)(=O)c2cccc(F)c2)[C@@H](CO)O1)C1CCC1
 : -6[16.7 µM], 76
- COc1ccc(NC(=O)Nc2ccc3c(c2)C(=O)N([C@@H](C)CO)C[C@@H](C)[C@@H](CN(C)C(=O)c2ccccc2)OCCCC[C@@H](C)O3)cc1
 : -12[16.7 µM], 14
- COCC(=O)Nc1ccc2c(c1)[C@@H]1C[C@@H](CC(=O)NCCc3ccccc3)O[C@H](CO)[C@@H]1O2
 : -16[16.7 µM], -13
- C[C@@H]1CN([C@H](C)CO)C(=O)Cc2cc(NC(=O)NC3CCCCC3)ccc2O[C@@H]1CN(C)Cc1ccncc1
 : 2[16.7 µM], -7

The list continues.
Below each SMILES – Env fusion inh, Yeast UUG start
- Cc1ccc(S(=O)(=O)N[C@H]2C=C[C@H](CC(=O)N3CCC(Cc4ccccc4)CC3)O[C@@H]2CO)cc1
 : 31[16.7 µM], 13
- COCC(=O)Nc1ccc2c(c1)[C@@H]1C[C@@H](CC(=O)NCc3ccc(-c4ccccc4)cc3)O[C@H](CO)[C@@H]1O2
 : 9[16.7 µM], -5
- CCCN(C)C[C@@H]1Oc2ncc(-c3cccnc3)cc2C(=O)N([C@H](C)CO)C[C@@H]1C
 : 4[16.7 µM], -6
- CC(=O)N(C)C[C@@H]1Oc2cc(C#CCC3CCCC3)ccc2S(=O)(=O)N([C@@H](C)CO)C[C@@H]1C
 : 31[16.7 µM], 20
- Cc1ccc(S(=O)(=O)Nc2ccc3c(c2)C(=O)N([C@H](C)CO)C[C@H](C)[C@@H](CN(C)C(=O)CCC(F)(F)F)OCCCC[C@@H](C)O3)cc1
 : -70[16.7 µM], -1
- CC(C)NC(=O)N(C)C[C@H]1OCCCC[C@H](C)Oc2ccc(NS(=O)(=O)c3ccc(F)cc3)cc2C(=O)N([C@@H](C)CO)C[C@@H]1C
 : -94[16.7 µM], -5
- C[C@@H]1CN([C@H](C)CO)C(=O)Cc2cc(NC(=O)Cn3cnnn3)ccc2O[C@H]1CN(C)Cc1ccc(Oc2ccccc2)cc1
 : -11[16.7 µM], 12
- N#C[C@@H]1[C@H](c2ccccc2)[C@H](CO)N1C(=O)c1cc(Cl)cc(Cl)c1
 : -15[16.7 µM], -10
- C[C@@H](O)C#Cc1ccc2c(c1)O[C@H](CN(C)C(=O)C1CCC1)[C@@H](C)CN([C@@H](C)CO)S2(=O)=O
 : 8[16.7 µM], 19
- C[C@H](CO)N1C[C@H](C)[C@H](CN(C)CC2CCCCC2)Oc2ccc(NC(=O)Nc3ccc4c(c3)OCO4)cc2C1=O
 : 28[16.7 µM], 22
